# Screening results: PubChem, National Center for Advancing Translational Sciences (NCATS)
# Rango release inh = inhibition of RanGTP-driven Rango-importin beta dissociation. O95149+P62826. Biochemical FRET Rango-importin beta, RanGTP-induced dissociation. Potency, µM (doses to about 46.1 µM), for inactives: top-dose activity change, negative = inhibition. 340,000 tested, 0.071% active. AID 540253; active means falling FRET ratio curve, often poorly fitted, with flat reads before Ran was added; inconclusive means other falling curves, or compound fluorescence or quenching; inactive means flat or rising ratio curve;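 note: potency is the fitted concentration of half-maximal effect; % of control where 0% means no effect; nearly all actives have a fitted effect of over 45% in size; -100% = wells without RanGTP and RCC1; the record marks most hits as doubtful in a second field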
#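 Rango FRET biosensor (snurportin-1 IBB flanked by N-terminal EYFP and C-terminal CFP10) at 0.1 uM, with 0.25 uM importin beta in PBS, 1mM DTT, 0.02% Tween-20, 0.1% BSA. 0.6 uM Ran, 2mM GTP and 0.2 uM RCC1 were then added for 45 min at room temperature. Inhibition read as loss of FRET rise.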
# GLA inh pH 4.5 = blocks human alpha-galactosidase A at pH 4.5 | activity change, negative = inhibition, % at 105 µM | purified enzyme, 4-MU-alpha-Gal fluorescence, pH 4.5 | P06280 | 230,000 tested, under 10 active; inconclusive = small, poorly fitted or top-dose-only inhibition, or a rising curve; inactive = flat fitted curve, though single readings scatter; no compound was filed as active;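 note: 0% = full activity with enzyme and -100% = basal without enzyme; dose as in the result columns while the protocol names 77 µM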
# miR-21 reporter = raises the signal of a miR-21 reporter; HeLa miR-21 FLuc reporter, luciferase, 48 h; Potency, µM (series often up to 38.3 µM), for inactives: at the highest dose reporter change, positive = more light; 340,000 tested, under 10 active; active = well fitted rising curve with a large enough effect; inconclusive = small, poorly fitted or top-dose-only effect; inactive = no such curve, though single readings can be large or run the other way;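 note: % of control where 0% means no effect; miR-21 action dims this reporter so a rising signal means less miR-21 action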
#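 Compounds were titrated across several concentrations (up to approximately 40 uM) and incubated 48 hours with HeLa miR-21-FLuc reporter cells (miR-21 target sequence downstream of FLuc, endogenous miR-21). Readout was firefly luciferase luminescence after lytic detection reagent.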
# Rango-impB inh = prevents formation of the Rango-importin beta complex; AID 540263; 340,000 tested, 0.031% active; Rango CFP/YFP FRET sensor + importin beta, 45 min; Q14974; Potency, µM (highest dose often 92.2 µM), without a hit: top-dose inhibition of complex formation; active = rising FRET ratio curve, often small or poorly fitted; inconclusive = mostly compound fluorescence or quenching in the first reads; inactive = flat curves in all reads;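 note: potency is the fitted concentration of half-maximal effect; 0% = DMSO wells and 100% = buffer wells lacking importin beta; nearly all actives have a fitted effect of over 15% in size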
# Target sequence (Q14974 whole entry, looked up): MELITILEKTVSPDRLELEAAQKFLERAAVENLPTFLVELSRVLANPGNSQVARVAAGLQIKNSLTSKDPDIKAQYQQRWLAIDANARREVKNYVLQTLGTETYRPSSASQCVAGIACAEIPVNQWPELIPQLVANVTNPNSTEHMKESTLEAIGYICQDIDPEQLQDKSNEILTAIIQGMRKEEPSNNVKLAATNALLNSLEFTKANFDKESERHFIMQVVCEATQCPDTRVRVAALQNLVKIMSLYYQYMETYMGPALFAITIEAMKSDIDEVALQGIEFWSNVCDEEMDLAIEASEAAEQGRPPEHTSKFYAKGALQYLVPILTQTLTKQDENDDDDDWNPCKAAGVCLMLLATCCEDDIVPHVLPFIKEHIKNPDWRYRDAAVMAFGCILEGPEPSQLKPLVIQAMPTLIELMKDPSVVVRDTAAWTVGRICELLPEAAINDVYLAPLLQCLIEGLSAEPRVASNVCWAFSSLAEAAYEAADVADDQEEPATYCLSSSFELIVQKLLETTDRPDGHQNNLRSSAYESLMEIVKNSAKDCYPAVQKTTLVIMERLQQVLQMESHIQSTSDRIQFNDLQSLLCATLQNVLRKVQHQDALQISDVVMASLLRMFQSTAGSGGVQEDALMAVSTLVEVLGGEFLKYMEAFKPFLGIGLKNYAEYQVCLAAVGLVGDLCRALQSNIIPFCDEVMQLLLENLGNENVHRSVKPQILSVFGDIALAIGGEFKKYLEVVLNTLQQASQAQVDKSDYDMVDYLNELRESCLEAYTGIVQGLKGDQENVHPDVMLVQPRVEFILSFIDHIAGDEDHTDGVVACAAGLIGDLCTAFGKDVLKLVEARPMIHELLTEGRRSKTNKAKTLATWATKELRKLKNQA
#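 Inhibition scored from the CFP 486 nm/YFP 530 nm FRET ratio 45 min after adding 0.125 microM importin beta to 50 nM Rango biosensor preincubated 5 min with compound (room temperature, PBS with DTT, Tween-20, BSA). No-importin wells as positive control.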
# Active calls of the source: *; u = inconclusive; x = not tested or not shown; & = joins results of further samples; [ ] = remark or other dose. The list is partial. The share of hits here may be higher or lower than overall.
No. | Molecule | Rango release inh | GLA inh pH 4.5 | miR-21 reporter | Rango-impB inh
1 | COc1ccc(N2CCCC2)c(NC(=O)c2ccc([N+](=O)[O-])o2)c1 | u | x | 7% | -1.3%
2 | NC(=O)c1nsc(C(=O)N(c2ccccc2)C(C(=O)NCc2ccc(F)cc2)c2ccco2)c1N (configuration not stated) | -14% | x | 14% | u
3 | Cc1ccc(/C=[N+](/C)[O-])cc1 | u | -7 | -1% | -3.8%
4 | CCCCn1c(=O)[nH]c(=O)c2c1nc(-c1ccc([N+](=O)[O-])cc1)n2CC | -19% | x | -15% | u
5 | O=C(COc1ccc2ccc(=O)oc2c1)NCCc1c[nH]c2ccc(F)cc12 | -12% | x | 4% | -0.3%
6 | O=C(CCNC(=O)N1CC(=O)Nc2ccccc21)NCCc1cccc(F)c1 | -15% | x | 2% | 5.4%
7 | COc1ccc(-c2ncncc2-c2csc(C)n2)c(O)c1 | 0% | 5 | -11% | 2.2%
8 | COc1ccc(C(=O)NNC(=O)c2cccs2)cc1S(=O)(=O)N1CCOCC1 | 9% | x | x | 5.0%
9 | O=C(Nc1ccccc1C(F)(F)F)C1CCCC1 | 24% | x | 3% | u
10 | CCOc1ccccc1CNC(=O)c1ccc(NC(=O)C2=CSCCO2)cc1 | 12% | x | -33% | 3.4%
11 | COC(=O)[C@@H](NC(=O)O[C@@H]1C(=O)c2cc(Br)ccc2O[C@H]1c1cccc(OC)c1)C(C)C | x | 0&-5 | -19% | x
12 | CC(=O)Nc1ccc(N2CCN(c3ccc(F)cc3)CC2)cc1 | 11% | x | -1% | 0.2%
13 | CC1C(=O)N2CCCc3cc(S(=O)(=O)N4CCC(C(N)=O)CC4)cc1c32 (configuration not stated) | 0% | x | -1%&-1% | -0.8%
14 | Cc1cc(Cl)ccc1C(=O)C1CCCN(C(=O)c2cccnc2C)C1 (configuration not stated) | 1% | x | 0% | 1.0%
15 | COc1cccc(OC(=O)CSc2nnc(-c3ccccc3Br)o2)c1 | 0% | 5 | -2% | 1.6%
16 | O=S(=O)(NCCN1CCOCC1)c1ccc2c(c1)OCCO2 | 26% | 1[21.1 µM] | 8% | 3.0%
17 | COC(C/C=C\[C@@H](O)[C@H](C)OCc1ccccc1)OC | 3% | x | x | 1.8%
18 | COc1ccc(OC)c(C(c2nnnn2CCC(C)C)N2CCN(C(=O)c3ccco3)CC2)c1 (configuration not stated) | -18% | 5 | -3% | 0.8%
19 | O=C(CSc1nnc(C23CC4CC(CC(C4)C2)C3)o1)Nc1ccc(N2CCOCC2)c(Cl)c1 | 3% | -3 | 0% | 3.6%
20 | COc1ccc(C(C(=O)NC2CCCCC2)N(C(=O)c2sc(C)nc2C)c2ccc(OC)cc2)cc1 (configuration not stated) | 2% | 0 | -14% | -0.2%
21 | Cc1ccc(S(=O)(=O)Nc2ccc(NC(=O)Nc3ccc(F)cc3F)cc2)cc1 | -16% | -3 | 19% | -2.2%
22 | O=C(CS(=O)(=O)Cc1ccccc1)Nc1ccc(S(=O)(=O)N2CCCCCC2)cc1 | -5% | -5 | 0% | 2.7%
23 | Cc1cccc(NC(=O)c2oc3ccc(S(=O)(=O)N4CCOCC4)cc3c2C)c1C | 6% | 2 | 11% | 1.4%
24 | Cc1ccc(CN2CCC(N3CC(C)OC(C)C3)CC2)cc1 (configuration not stated) | 1% | x | 5% | 1.1%
25 | Cc1ccccc1-n1cnc2cc(NCc3cccs3)ccc21 | -10% | -23 | -7% | -1.1%
26 | Cc1nonc1NC(=O)N1CCCC1 | -5% | 5 | 0% | 3.7%
27 | CCS(=O)(=O)N1CCC(NC(C)=O)(c2ccccc2)CC1 | -18% | 10 | -4% | u
28 | Cc1ccc(C(CNS(=O)(=O)c2cc(F)ccc2F)N2CCN(C)CC2)cc1 (configuration not stated) | -3% | x | x | -1.7%
29 | Cc1cc(C)cc(Oc2nc3ccccn3c(=O)c2/C=C(\C#N)C(=O)NC2CCS(=O)(=O)C2)c1 (configuration not stated) | u | 1 | 15% | u
30 | N#C/C(=C\c1ccccc1OCc1ccc(C(=O)O)cc1)c1ccccc1 | -4% | -5 | -3% | -0.8%
31 | Cc1cc(C)n(CCNC(=O)C2CCC(=O)N(CCc3cccc(F)c3)C2)n1 (configuration not stated) | -13% | x | 1% | -0.7%
32 | Cc1c(OCC(=O)N2CCC(C(N)=O)CC2)ccc2c3c(c(=O)oc12)CCC3 | -8% | x | -1% | 1.3%
33 | Cn1c(CNC(=O)CCNC(=O)c2ccc(Br)cc2)cc(=O)n(C)c1=O | 18% | x | 2% | 2.6%
34 | CCOc1cc(NS(=O)(=O)c2ccc(NC(C)=O)cc2)c(OCC)cc1NC(=O)c1cccs1 | -3% | -8 | -10% | 4.8%
35 | COc1cc(OC)cc(-c2c(-c3cccs3)c3cc(Br)ccc3n2C)c1 | 5% | x | x | u
36 | O=C(NC(=S)Nc1ccc(Cl)c(C(=O)O)c1)c1ccco1 | 2% | x | 1% | 3.6%
37 | O=C(OC1CCOC1=O)c1ccc2ccccc2n1 (configuration not stated) | 7% | 4 | 1% | -0.8%
38 | COc1ccc(Cl)cc1NC(=O)CN(C)C1CCS(=O)(=O)C1 (configuration not stated) | -1% | x | x | 1.7%
39 | O=S(=O)(c1ccc(Cl)cc1)N1CCN(C2CCCCCC2)CC1 | 0% | -2 | -1% | 0.1%
40 | CC12CCC(C(=O)N(CCCCN3CCN(Cc4ccccc4)CC3)C1=O)C2(C)C (configuration not stated) | 18% | -1 | 2% | -1.6%
41 | COc1ccc(/C=N/n2c(-c3n[nH]c4c3CCC4)n[nH]c2=S)cc1OC | 7% | -4 | -16% | -6.8%
42 | COc1ccc(Cc2nc3ccccc3[nH]2)cc1OC | 17% | 1 | 0% | -3.3%
43 | CCCNC(=O)c1cccc(NC(=O)C(C)C)c1 | -4% | -6 | 3% | 7.8%
44 | CC(=O)c1ccc2c3c(ccc(O)c13)CC2 | 8% | 0 | -8% | -2.0%
45 | CCC(CC)COC(=O)C1=C(C)NC(=O)NC1c1ccccc1Br (configuration not stated) | 0% | x | 14% | -2.8%
46 | COc1ccc(NC2=C(c3ccc(OC)cc3)C(=O)c3ccccc32)cc1 | -13% | 0 | -27% | 0.9%
47 | CC(=O)Nc1ccc(OCCOc2ccc(/C=C3\C(=N)N4N=C(C)SC4=NC3=O)cc2)cc1 | -4% | x | 2% | 0.0%
48 | O=C(OCC(=O)N1CCCCCC1)c1cccc(Cl)c1 | 1% | x | x | 3.5%
49 | CN(C(=O)c1ccc(OC2CCN(CCc3ccccc3)CC2)cc1)C1CCOCC1 | -21% | -10 | -2% | -0.2%
50 | CN=C(Nc1ccc(Br)cc1)SC1CC(=O)N(c2ccc(OC)cc2)C1=O (configuration not stated) | 50% | u | 10% | 3.3%
51 | CCc1nnc(NC(=O)CSc2nnc(-c3ccncc3)n2C)s1 | 6% | -4 | -6% | 2.1%
52 | CCC(=O)Nc1ccccc1C(=O)OCc1ccc(C(=O)c2ccccc2)cc1 | -18% | 2 | -8% | -1.2%
53 | CN(C(=O)COC(=O)/C=C/c1ccc2ccccc2n1)C1CCS(=O)(=O)C1 (configuration not stated) | 3% | -5 | 7% | -0.1%
54 | N#Cc1nc(-c2ccco2)oc1N1CCOCC1 | 1% | -1 | -4% | -0.3%
55 | C[C@H](NC(=O)c1nc[nH]c1C(=O)NCCCCCNC(=O)OC(C)(C)C)C(=O)OCc1ccccc1 | -17% | -26 | 12% | -2.0%
56 | Cc1ccccc1C(=O)NNc1ccc([N+](=O)[O-])cc1 | 0% | 2 | -3% | -0.3%
57 | COC(=O)C(C)N(C#N)c1nc(C)cc(C)n1 (configuration not stated) | 6% | 0 | 0% | -3.3%
58 | CC(C)COC(=O)n1ccc(C(=O)N2CCCCC2)n1 | -23% | 1 | -4% | 1.3%
59 | CCOC(=O)CC1=CC(=O)Nc2ccccc2N1 | 8% | 4 | -5% | -1.1%
60 | CC(C)CNc1ncnc2c1cnn2Cc1ccc(Cl)cc1 | -11% | -4 | 3% | -0.4%

# Continuation.
No. | Molecule | Rango release inh | GLA inh pH 4.5 | miR-21 reporter | Rango-impB inh
61 | Cc1ccccc1OCC(=O)NNC(=O)CSc1nc(N)cc(N)n1 | 5% | -10 | -2% | 7.1%
62 | O=C(c1cc(F)cc2c1OCOC2)N1CCN(c2ccc(F)cc2)CC1 | 16% | -7 | -1% | -2.9%
63 | Cc1ccc(OCC(=O)OCc2c(C)noc2C)cc1C | -4% | -8 | -2% | 1.7%
64 | COc1ccc2oc(C(=O)C3CC3)c(N)c2c1 | -4% | 1 | -54% | -4.6%
65 | CC1(C)C/C(=N/Nc2ccc([N+](=O)[O-])cc2[N+](=O)[O-])C(C)(C)O1 | 2% | x | x | -0.2%
66 | O=C(NC(=S)NNC(=O)c1ccccc1O)c1cccnc1 | -14% | -6 | 5% | 0.1%
67 | COc1ccc(C2CC(=O)C3=C(C2)Nc2ccccc2N(C(=O)CCC(=O)O)C3c2ccc(F)cc2)cc1OC (configuration not stated) | 30% | -12 | -3% | -0.4%
68 | O=S1(=O)CCOC[C@H](Cc2ccccc2)N1Cc1cccc(F)c1 | -4% | x | x | 0.5%
69 | CCN(CC)CCn1c(-c2ccccc2)nc(=S)c2c1CC(C)(C)OC2 | 1% | 3 | -7% | -3.8%
70 | COc1ccc(/C=C/C(=O)N(c2ccccn2)C2CCCCC2)cc1OC | -16% | 5 | -17% | -2.8%
71 | COc1cccc(-c2nc(CS(=O)(=O)CC(=O)N3CCc4ccccc43)c(C)o2)c1 | 16% | -8 | -5% | 0.8%
72 | CCCC1Nc2ccc(C(=O)O)cc2C2C=CCC12 (configuration not stated) | u | 1 | 1% | u
73 | O=C(O)COc1ccc2c(-c3ccccc3)cc(=O)oc2c1 | 3% | 3 | -11% | u
74 | COc1ccc(CCN(CC(=O)NCc2ccc(F)cc2)C(=O)c2snc(C(N)=O)c2N)cc1OC | 2% | x | -1% | -3.0%
75 | Cc1cc(N2C(=O)C3C4c5ccccc5C(c5ccccc54)C3C2=O)no1 (configuration not stated) | 1% | 1 | 22% | -0.1%
76 | COc1cc2nc(CN3CCC(C(O)(c4ccccc4)c4ccccc4)CC3)[nH]c(=O)c2cc1OC | u | -1 | -2% | -1.8%
77 | C=CCNC(=O)Cc1ccc(S(=O)(=O)N2CCOCC2)s1 | -13% | x | x | -1.2%
78 | O=C(NCNC(=O)c1ccccc1)c1ccccc1 | 0% | 1 | -2% | 4.5%
79 | CC(=O)c1cc2c(cc1NC(=O)c1ccccc1C)OCO2 | x | 13 | -3% | x
80 | COc1ccc(N2CCN(C(c3nnnn3CCc3ccccc3)C(C)C)CC2)cc1 (configuration not stated) | 31% | 3 | -11% | -1.8%
81 | CC(Oc1cccc(Cl)c1)C(=O)NCCCCc1ccccc1 (configuration not stated) | -1% | -1 | -7% | 0.4%
82 | CC[C@]12c3[nH]c4cc(CCC(=O)N(C)C)ccc4c3CCN1C(=O)[C@@H](CC(=O)NCCCN(C)C)C[C@@H]2C(=O)N1CCN(C(=O)c2ccco2)CC1 | 0% | x | x | 0.3%
